# Bioassay records deposited in PubChem BioAssay by several laboratories.
# Ecoli growth: E. coli growth inhibition, primary screen, OD600. Escherichia coli growth, 23 h; stronger effect = lower value. OD600 absorbance (test concentration not listed). hit rate 0.21% among 330,000;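 active means OD600 absorbance below the run mean of sample wells minus 3.6 SD, in any replicate, cut at about 0.56 in these data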;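 further: stock transfer was 300 nL into about 60 µL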
# UCH37 inh: inhibitors of human UCH37 deubiquitinase, primary screen, biochemical, Ub-AMC cleavage, fluorescence. inhibition, % (concentration not given with the values). purified proteasome/UCH37. Ubiquitin carboxyl-terminal hydrolase isozyme L5 (Homo sapiens), Q9Y5K5. hit rate 0.33% among 330,000. AID 588478, 2011;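 active means mean of two replicates above 20%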;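 further: 0% = compound-free wells with enzyme and 100% = wells lacking proteasome; stock transfer was 100 nL into about 20 µL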
# Target sequence (Q9Y5K5 whole entry, looked up): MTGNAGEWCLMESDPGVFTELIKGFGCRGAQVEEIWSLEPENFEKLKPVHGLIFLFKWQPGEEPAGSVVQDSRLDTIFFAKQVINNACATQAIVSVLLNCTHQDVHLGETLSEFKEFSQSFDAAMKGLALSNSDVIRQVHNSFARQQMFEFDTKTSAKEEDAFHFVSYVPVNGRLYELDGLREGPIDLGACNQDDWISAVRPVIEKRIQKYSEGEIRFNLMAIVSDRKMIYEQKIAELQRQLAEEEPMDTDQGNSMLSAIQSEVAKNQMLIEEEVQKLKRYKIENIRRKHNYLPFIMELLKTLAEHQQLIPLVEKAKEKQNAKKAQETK
#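 Material: Human UCH37 enzyme supplied as purified proteasome complex | Schedule: 30 min compound-proteasome preincubation then 25 min substrate reaction, room temperature | Detection: AMC fluorescence from Ub-AMC cleavage, excitation 355 nm, emission 460 nm | Benchmarks: Wells without proteasome as full block, compound-free enzyme plus substrate as uninhibited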
# HNF4A DNA FP: change in binding of human HNF4A to DNA, primary screen, biochemical, fluorescence polarization, FITC-DNA | Hepatocyte nuclear factor 4-alpha (Homo sapiens), P41235 | hit rate 0.3% among 360,000 | AID 1224865, 2016 | activity change, % at 10 µM | 1 h; in the data active means activity change above about 30%, passing the limit was not always enough;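 further: controls were the assay level and a saturating level of protein; the project sought stronger binding though the title names inhibitors; some compounds called inactive have numbers as strong as hits; positive values seem to mean higher polarization but the record does not say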
# Target sequence (P41235 whole entry, looked up): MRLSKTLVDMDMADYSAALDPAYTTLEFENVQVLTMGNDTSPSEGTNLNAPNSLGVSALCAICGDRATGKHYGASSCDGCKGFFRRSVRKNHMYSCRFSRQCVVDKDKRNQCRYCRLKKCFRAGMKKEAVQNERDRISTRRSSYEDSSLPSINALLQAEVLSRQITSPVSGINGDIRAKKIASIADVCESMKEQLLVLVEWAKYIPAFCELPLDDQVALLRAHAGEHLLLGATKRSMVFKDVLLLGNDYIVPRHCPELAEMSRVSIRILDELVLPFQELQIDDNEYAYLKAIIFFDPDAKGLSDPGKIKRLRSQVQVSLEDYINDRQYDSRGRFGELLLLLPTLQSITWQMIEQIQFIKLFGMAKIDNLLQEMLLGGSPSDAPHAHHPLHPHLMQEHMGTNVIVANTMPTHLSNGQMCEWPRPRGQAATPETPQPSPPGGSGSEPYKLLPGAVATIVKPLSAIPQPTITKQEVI
# FGF22 binding: binders of human FGF22 protein, primary screen, FGF22 synaptogenesis inhibitor project, biophysical, thermal shift, single point; Fibroblast growth factor 22 (Homo sapiens), Q9HCT0; recombinant FGF22 thermal shift, SYPRO orange fluorescence; percent of sucrose octasulfate shift, DMSO zero; calls only at 9.99 µM; hit rate 1.5% among 340,000; AID 651658, 2012;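 active means melting point raised past a set limit in the mean and every replicate; three in four hits are not shown here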
# Target sequence (Q9HCT0 whole entry, looked up): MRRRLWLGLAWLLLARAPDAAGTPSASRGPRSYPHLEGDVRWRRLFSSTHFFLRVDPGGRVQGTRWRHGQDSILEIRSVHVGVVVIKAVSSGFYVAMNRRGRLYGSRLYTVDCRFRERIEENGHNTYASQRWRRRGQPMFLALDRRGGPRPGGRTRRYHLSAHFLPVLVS
# Beta2AR agonist: beta2AR agonists driving receptor internalization, primary screen, cell-based, FAP fluorogen, flow cytometry. Beta-2 adrenergic receptor (Homo sapiens), P07550. Am2.2-beta2AR cells; reference of the scale not given here. response, % (test concentration not listed). hit rate 0.43% among 340,000. AID 504454, 2011;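 active means response above a set limit, near 3 SD of response in nonfluorescent compounds, cut at about 42% in these data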;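 further: stock transfer was 100 nL into about 11 µL; a reference agonist was the positive control; negative values mostly stem from fluorescent compounds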
# ALR H2O2 inh: inhibitors of human ALR sulfhydryl oxidase, primary screen, biochemical, H2O2 detection, HRP-luminol luminescence, single point; inhibition, % (no concentration beside the values); hit rate 3.8% among 290,000; FAD-linked sulfhydryl oxidase ALR (Homo sapiens), P55789; AID 485317, 2010; purified ALR, DTT oxidation;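 active means mean and each replicate at 75% or more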;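 further: stock transfer was 7.5 nL into about 7.5 µL; 0% = neutral wells and 100% = wells with inactivated enzyme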
# LANA-H2B inh: blockers of LANA interaction with H2A/H2B – biochemical, FP readout, HTS, primary screen; Protein LANA1 (Human herpesvirus 8 type P (isolate GK18)), Q9QR71; cell-free LANA-H2A/H2B peptide, fluorescence polarization; inhibition, % (no concentration beside the values); hit rate 0.6% among 320,000; in the data active means inhibition mostly above about 10%, no sharp cut-off; inactive means mostly below about 6.7%;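 further: stock transfer was 7.5 nL into about 10 µL; 0% = median of vehicle wells and 100% = median of positive control wells; one replicate is shown; the record names a cut of 25% in any replicate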
# The depositor's hits bear a star; i = inactive; . = not tested or not shown.
SMILES,Ecoli growth,UCH37 inh,HNF4A DNA FP,FGF22 binding,Beta2AR agonist,ALR H2O2 inh,LANA-H2B inh
Cc1cccc(NC(=O)CC2C(=O)NCCN2C(=O)Nc2ccc(Cl)cc2)c1 (centres undefined),0.738,3.3,3.9,i,2.4,-5.3,-15.4
CCC(C)[C@H](NC(=O)NC1CCCc2ccccc21)C(=O)O (some centres undefined),0.633,1.7,1.3,.,-0.9,-16.0,-1.3
COc1ccc(C(=O)c2ccccc2)c(OCC(=O)N(C)C)c1,0.721,1.4,0.8,i,-7.5,.,-2.1
Cc1ccc(S(=O)(=O)CCC(=O)OCC(=O)N2CC(=O)Nc3ccccc32)cc1,0.669,5.3,-3.0,.,-3.8,-17.3,-2.8
CCCCNC(=O)C1CC(c2ccc(C(F)(F)F)cc2)=NO1 (centres undefined),0.636,1.2,4.2,i,-7.3,.,2.2
COc1ccc(CNCCSc2nnnn2C)cc1OC,0.752,-1.8,-4.2,.,-1.8,-3.6,-0.5
COC(=O)CN1C(=O)S/C(=C/c2ccc(N3CCCCC3)o2)C1=O,0.663,9.4,-37.9,.,i,69.1,-58.9
COc1ccccc1C(=O)Nc1ccc(OCc2nnc3c4ccccc4c(C)nn23)cc1,0.753,-5.3,2.7,i,-15.0,-2.5,0.4
Cc1cccc(C)c1NC(=O)CSc1nnc(C)n1CC1CCCO1 (centres undefined),0.677,-0.6,115.2*,.,5.3,0.4,-1.4
COc1cccc(C(=O)Nc2sc(C(C)C)cc2C(N)=O)c1OC,0.692,-46.7,0.3,i,5.4,53.7,-1.2
COc1ccc(NS(=O)(=O)c2ccc(C)c(C(=O)N(C)Cc3ccc(C)cc3)c2)cc1,0.601,-1.3,3.8,i,-0.6,-8.9,-0.7
COc1cnc(SCCC(F)=C(F)F)[nH]c1=O,0.758,3.7,0.0,i,1.1,2.4,-1.1
Cc1c(C(=O)NNC(=O)c2ccncc2)oc2ccc(Br)cc12,0.609,7.7,2.2,i,-5.5,.,4.8
CCCC(=O)Nc1ccccc1-c1nnn(CC(=O)Nc2ccc(OCC)cc2)n1,0.723,5.7,-1.6,.,-1.1,0.0,1.6
C=CCn1c(SCC(=O)Nc2sccc2C#N)nc2sc(C)c(C)c2c1=O,0.722,-1.7,5.2,.,3.7,-2.9,4.6
CN(C)S(=O)(=O)c1ccc(N2CCOCC2)nc1,0.626,3.9,-0.3,.,10.5,-1.6,-3.6
Cn1cc([N+](=O)[O-])c(C(=O)N/N=C/c2ccc3c(c2)OCO3)n1,.,.,3.6,i,-4.2,-7.5,1.1
COc1cc(C2C(C#N)=C(N)Oc3n[nH]c(-c4cccs4)c32)cc(OC)c1O (centres undefined),0.661,1.8,5.5,i,1.5,89.4*,-1.4
O=c1[nH]c(COc2ccc(Cl)cc2Cl)nc2ccccc12,0.716,3.6,3.1,i,0.2,-11.2,-8.0
O=C(OCCN1CCCCC1)c1c[nH]c2ccccc12,0.636,2.2,0.4,i,-6.8,-24.0,-6.4

# With a hit mark in ALR H2O2 inh, of those listed so far:
SMILES	UCH37 inh	Beta2AR agonist	ALR H2O2 inh	LANA-H2B inh
COc1cc(C2C(C#N)=C(N)Oc3n[nH]c(-c4cccs4)c32)cc(OC)c1O (centres undefined)	1.8	1.5	89.4*	-1.4

# Next section
SMILES,Ecoli growth,UCH37 inh,HNF4A DNA FP,FGF22 binding,Beta2AR agonist,ALR H2O2 inh,LANA-H2B inh
CCN1C(=O)C(=O)N(CC(=O)Nc2ccccc2Oc2ccccc2)C1=O,0.705,-1.5,-0.4,i,-1.9,0.4,-1.3
CCOc1ccc(N(CC(=O)O)S(=O)(=O)c2ccc(F)cc2)cc1,0.736,0.9,-4.7,.,-7.8,-3.7,-5.4
O=C(Nc1ccccc1)NC1CCCc2ccccc21 (centres undefined),0.69,2.4,-0.7,i,0.0,-1.0,-1.9
COc1cc(Br)c(CC2c3cc(OC)c(OC)cc3CCN2C)cc1OC (centres undefined),.,.,0.6,i,-1.0,.,.
Cc1ccccc1Nc1nc(Nc2ccccc2C)nc(SC2=NCCS2)n1,0.668,2.2,-4.4,i,2.4,2.7,2.4
CCOC(=O)c1c(NC(=O)c2cccs2)sc2c1CCN(C(=O)OCC)C2,0.697,-11.1,-0.9,.,6.8,-5.5,-4.0
O=S(=O)(Nc1ccc(-c2nc3cccnc3s2)cc1)c1ccccc1F,0.683,i,-0.7,i,6.0,-5.9,-0.6
COc1ccc(-n2nc(C(=O)NCC(=O)N3CCN(c4ccccc4)CC3)c3ccccc3c2=O)cc1OC,0.646,0.4,-1.1,i,-4.9,-8.0,8.5
O=C(COc1cccc(F)c1)Nc1nc(-c2cccnc2)cs1,0.615,3.3,0.6,i,7.8,40.7,5.1
Cc1ccc(C)n1-c1sc2c(c1C#N)CCCC2,0.743,3.0,1.0,.,6.1,-0.4,-1.7
Cc1cccc(N(C)S(=O)(=O)c2ccc3c(c2)CCC(=O)N3)c1,0.735,1.5,-0.1,.,1.1,0.1,-1.6
CCN(CC)CCSc1nc(O)c(-c2ccccc2)c(=O)[nH]1,0.685,2.2,-3.1,.,-1.6,-0.5,1.7
Cc1ccc(S(=O)(=O)NCC(=O)OC(C)C(=O)Nc2ncc(Cl)cc2Cl)cc1 (centres undefined),0.721,-3.6,-0.6,.,-1.5,-9.1,-3.8
COc1cc(NC(=O)c2ccc(Br)cc2)c(OC)cc1NC(=O)c1ccccc1,0.7,-308.8,-0.3,i,-0.7,-27.1,-2.5
Nc1cc(=O)[nH]c(SCC(=O)Nc2cccc(S(=O)(=O)N3CCCCCC3)c2)n1,0.637,1.3,5.2,i,-0.3,70.4,0.7
Cc1ccc(Cn2nnc3c(=O)n(CC(=O)NCc4ccccc4)cnc32)cc1,0.657,0.8,1.7,i,-5.6,-12.2,-2.8
Cc1onc(-c2c(Cl)cccc2Cl)c1C(=O)N1CCN(c2ccccc2F)CC1,0.68,2.0,2.5,i,0.9,3.6,1.8
CCN1CCCC1CNc1ncnc2c1[nH]c1ccc(Cl)cc12 (centres undefined),0.651,-2.7,-0.6,.,1.7,-11.5,0.0
O=C(NCc1cccnc1)c1ccc(Cn2cc(C(F)(F)F)ccc2=O)cc1,0.657,-1.2,-0.9,i,-4.4,-8.1,-4.3
CC/C(=N\NC(=O)c1nnn(-c2nonc2N)c1CN(C)c1ccccc1)c1ccccc1,.,.,-3.0,i,-0.5,0.1,-1.0
CCC1=Nc2ccccc2NC2=C1C(=O)CCC2,0.841,4.9,2.5,.,3.3,68.5,3.7
CCCCCCN1C=CC(=C2C(=O)c3ccccc3C2=O)C=C1,0.652,1.4,2.7,i,-5.1,-0.9,-7.4
Cc1ccc(C)c(NC(=O)c2cnccn2)c1,0.639,0.6,-2.5,i,-5.4,-9.3,-3.5
C=C(C)Cn1c(C)cc(C)c(S(=O)(=O)c2ccccc2C)c1=O,0.747,-0.4,-1.5,.,5.3,-19.2,7.5
O=C(NCC1CCCCC1)c1ccc(=O)[nH]c1,0.653,-0.3,-5.8,i,-6.0,-7.0,-0.3
CC(=O)C1C(=O)CC(c2ccc(Cl)cc2)CC1=O (centres undefined),0.637,3.2,-2.2,i,-5.1,-3.5,1.6
CCOc1cc(C(=O)Nc2cccnc2)cc(OCC)c1OCC,0.696,3.0,0.4,i,-0.3,-3.0,-5.9
O=C(NCCNc1ccc([N+](=O)[O-])cc1)c1cccc2c(Br)cccc12,0.707,-0.2,-4.6,i,2.8,.,.
O=C(CN1CCN(S(=O)(=O)c2ccc(F)cc2)CC1)Nc1ccc2c(c1)OCCO2,0.744,1.7,0.2,.,3.9,-1.2,-2.7
O=C(CSc1ccc2c(c1)OCCO2)Nc1cccnc1,0.649,1.6,-2.9,i,2.7,98.7*,5.3
COc1cccc(/C=C/C(=O)c2cccc([N+](=O)[O-])c2)c1OC,0.714,3.4,-4.7,i,17.2,5.1,-0.5
O=C(Cc1ccc(N2CCNC2=O)cc1)N1CCCC(Nc2cccc(F)c2)C1 (centres undefined),0.736,3.4,3.6,i,8.0,99.0*,-0.9
COc1ccccc1/C=N/NC(=O)c1ccccc1NS(=O)(=O)c1ccc(C)cc1,.,.,2.7,.,8.1,5.9,-0.8
CC1(C)CC(=O)C(C=NCCN2CCOCC2)=C(O)C1,0.656,1.7,-0.7,.,-8.4,-2.0,19.9
O=C(NS(=O)(=O)c1ccc(Cl)cc1)c1ccccc1,0.704,2.6,3.8,i,3.7,1.9,-2.1
COc1ccc(-c2c(C#Cc3ccsc3)c3cc(-c4ccc5cc[nH]c5c4)ccc3n2C)cc1,0.704,-16.8,10.3,i,0.8,2.5,-1.2
O=C(CC1SC(N2CCOCC2)=NC1=O)Nc1ccccc1Cl (centres undefined),0.681,1.8,-4.6,i,-0.8,-1.9,-0.1
CC(=NCCc1c(C)[nH]c2ccc(OC(F)(F)F)cc12)C1=C(O)CC(c2ccccc2)CC1=O (centres undefined),0.683,2.3,-1.5,.,-6.1,13.3,-2.2
O=C(Oc1ccc(Cl)c2cccnc12)N1CCCCCC1,0.718,0.4,-7.1,.,-2.0,-3.9,7.7
CCC(C(=O)N1CCN(S(=O)(=O)c2ccc(F)cc2)CC1)c1ccccc1 (centres undefined),0.663,0.6,1.5,i,1.8,.,-3.3
O=C(O)C1CC=CCC1C(=O)NNc1ccccc1 (centres undefined),0.68,-0.5,0.5,.,-4.9,47.0,0.9
CCOc1ccc2oc(-c3ccccc3)c(C(=O)N3CCN(C)CC3)c2c1,0.637,-89.3,1.0,.,12.2,-33.6,-0.4
COC(=O)C1=C(Nc2cc(Cl)cc(Cl)c2)CSC1,0.663,-45.7,-2.0,i,3.9,99.0*,-1.4
Cn1c(Cc2ccccc2)nnc1SCC(=O)NC1CCCCC1,0.718,4.1,-0.1,.,-0.4,6.2,-2.1
O=C(Nc1ccc(Cl)cc1)c1cccc(S(=O)(=O)Nc2ccccn2)c1,0.667,-2.0,1.1,i,0.8,-2.2,5.5
CC(C)(C)NS(=O)(=O)c1ccc(OCC(=O)NCC2CCCO2)cc1 (centres undefined),0.692,4.3,1.1,i,1.9,.,.
Cn1cccc1C(=O)NC(=O)COC(=O)CC12CC3CC(CC(C3)C1)C2,.,.,-3.4,.,19.2,-6.6,4.4
CN(C)c1ccc(Nc2ccc([N+](=O)[O-])cn2)cc1,0.689,5.9,0.7,i,0.6,.,-4.7
Cc1ccc(NS(=O)(=O)c2ccccc2F)cc1S(=O)(=O)N1CCCCCC1,0.688,0.8,0.8,i,7.8,.,.
CC(NC(=O)COC(=O)CN1C(=O)NC2(CCCC2)C1=O)c1ccc(F)cc1 (centres undefined),0.674,2.7,3.9,i,1.9,.,.
CCn1c(/N=C/c2c[nH]c3ccccc23)nc2ccccc21,.,.,-2.2,.,-3.2,-9.8,-5.5
CCOCC(=O)Nc1ccc([N+](=O)[O-])cc1OC,0.74,7.3,-4.4,i,5.0,-5.6,2.3
Cc1csc(=O)n1CCC(=O)OCC(=O)Nc1ccc(C(N)=O)cc1,0.698,6.6,1.0,i,7.6,-17.2,1.3
O=C(NC12CC3CC(CC(C3)C1)C2)N1CCC(O)(c2ccc3c(c2)OCO3)CC1,0.68,2.1,1.9,.,6.0,3.0,1.7
COc1ccc(CC(=O)NCc2ccc(-n3cccc3)cc2)cc1OC,0.665,4.6,-3.2,i,0.2,-1.0,-1.4

# Some of the compounds tested (hit frequency here may not be typical).
